Compound activity deposited in PubChem by National Center for Advancing Translational Sciences (NCATS).
RE007 growth inh: less growth of the S. pombe RE007 Vpr strain | S. pombe RE007 Vpr strain, BacTiter-Glo ATP luminescence, 24 h; control for the full effect not named in the record | Potency, µM (highest dose often 92.2 µM), without a hit: at the top dose activity change, negative = less growth | actives 0.21% (n = 360,000); active = well fitted falling curve with a large enough effect; inconclusive = small, poorly fitted or top-dose-only effect; inactive = no such curve, though single readings can be large or run the other way;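 further: on the % scale 0 is the no-effect control and ±100 the full control effect; nearly all actives have a fitted effect of over 50% in size; the assay follows cell death caused by Vpr and the record does not say whether a fall means rescue or toxicity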
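Fission yeast RE007 carrying one integrated HIV-1 vpr copy, seeded at OD 0.01 in PMG+AL medium with 23 nL pinned compound. Grown 24 h at 30 degrees; viability read by BacTiter-Glo luminescence after 5 min.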
2A StopGo: FMDV 2A StopGo reporter, luciferase signal. AID 1159524. actives 1.2% (n = 410,000). human cells with a luciferase reporter of 2A StopGo recoding; control for the full effect not named in the record. Potency, µM (highest dose often 57.9 µM), without a hit: at the top dose signal change, negative = less light; active = well fitted falling curve with a large enough effect; inconclusive = small, poorly fitted or top-dose-only effect; inactive = no such curve, though single readings can be large or run the other way; tested in HEK293T cells; further: on the % scale 0 is the no-effect control and ±100 the full control effect; nearly all actives have a fitted effect of over 45% in size; luciferase light after 4 h
NS1 function inh: inhibitors of influenza NS1 protein function. S. cerevisiae slowed by influenza A NS1, growth recovery by OD600. Potency, µM (titrated, usually from 46.1 µM), for the others: at the highest dose activity, positive = more growth. actives 0.4% (n = 270,000); active means well fitted rising curve with a large enough effect; inconclusive means small, poorly fitted or top-dose-only effect; inactive means no such curve, though single readings can be large or run the other way; further: nearly all actives have a fitted effect of over 50% in size
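Read-out: OD600 growth recovery of NS1-expressing budding yeast. Cells grown overnight at 30C in -URA glucose medium, washed, resuspended and diluted 1:100 in 2% galactose assay medium, pH 6.0. Same strain lacking NS1 served as positive control.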
SARS PLpro yeast: SARS-CoV PLP inhibition in yeast; S. cerevisiae expressing SARS-CoV PLpro, growth rescue; control for the full effect not named in the record; Potency, µM (doses to about 32.9 µM), without a hit: at the top dose activity, positive = growth rescue; actives 0.19% (n = 330,000); active means well fitted rising curve with a large enough effect; inconclusive means small, poorly fitted or top-dose-only effect; inactive means no such curve, though single readings can be large or run the other way; further: 0% is about no effect; nearly all actives have a fitted effect of over 55% in size; growth read by luminescence after 48 h
Cruzain Triton: cruzain (T. cruzi) inhibition with detergent. actives 0.43% (n = 200,000). Potency, µM, inactives show max response, negative = inhibition, actives largely listed as inhibitors. P25779. purified cruzain, Z-FR-AMC fluorescence, 0.01% Triton. AID 1478;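 further: plate controls were neutral wells for no effect and buffer without enzyme for full effect; nearly all actives have a fitted effect of over 40% in size; top concentration of the series not given in the record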
Target sequence (P25779 123-467 limits assumed): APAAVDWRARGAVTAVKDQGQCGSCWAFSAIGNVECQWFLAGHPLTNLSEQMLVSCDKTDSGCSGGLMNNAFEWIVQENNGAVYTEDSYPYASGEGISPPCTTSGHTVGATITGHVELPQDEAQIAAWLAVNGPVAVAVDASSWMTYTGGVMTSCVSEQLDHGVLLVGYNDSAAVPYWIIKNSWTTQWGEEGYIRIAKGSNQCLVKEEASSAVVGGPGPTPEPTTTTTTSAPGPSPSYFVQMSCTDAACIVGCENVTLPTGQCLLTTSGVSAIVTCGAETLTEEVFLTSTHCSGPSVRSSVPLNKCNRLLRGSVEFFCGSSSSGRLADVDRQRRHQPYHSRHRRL
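Cruzain (1.5 nM) preincubated 15 min at RT with compound in 100 mM sodium acetate pH 5.5, 5 mM DTT, 0.01% Triton X-100. Reaction started with 2 uM Z-FR-AMC; AMC fluorescence (ex 360/em 450 nm) change over 60 s gave rate.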
Marburg entry inh: blocks Marburg virus binding to or entry into cells. Potency, µM (highest dose often 37.8 µM), inactives show top-dose activity change, negative = inhibition, usual class: inhibitors. actives 1.8% (n = 300,000). Marburg virus pseudotyped entry inhibition, cell reporter; control for the full effect not named in the record; about a third of the inactives were read at about 46 µM; active = well fitted inhibition curve with a large enough effect; inconclusive = small, poorly fitted or top-dose-only effect, or effect the other way; inactive = flat fitted curve, though single readings scatter; tested in HEK293 cells; about a fifth of its hits are not listed in these tables; further: on the % scale 0 is the no-effect control and ±100 the full control effect; luciferase read-out
Lassa entry inh: Lassa virus entry inhibition. Potency, µM (top dose mostly 37.9 µM), for inactives: top-dose activity change, negative = inhibition, actives largely listed as inhibitors. actives 1.2% (n = 300,000). Lassa virus pseudotype entry inhibition, cell reporter; control for the full effect not named in the record; active means well fitted inhibition curve with a large enough effect; inconclusive means small, poorly fitted or top-dose-only effect, or effect the other way; inactive means flat fitted curve, though single readings scatter; tested in HEK293 cells; further: on the % scale 0 is the no-effect control and ±100 the full control effect; nearly all actives have a fitted effect of over 50% in size; luciferase read-out
Cruzain noTriton: inhibitors of Trypanosoma cruzi cruzain without detergent; purified cruzain, Z-FR-AMC fluorescence, no detergent; Potency, µM, for inactives: max response, negative = inhibition, most hits filed as inhibitors; actives 2.3% (n = 200,000); AID 1476;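 further: plate controls were enzyme without inhibitor for no effect and buffer without enzyme for full effect; nearly all actives have a fitted effect of over 40% in size; top concentration of the series not given in the record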
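Detergent-free condition (0.00005% Triton X-100) in acetate buffer pH 5.5 with DTT. 1.5 nM enzyme and compound were pre-mixed 15 min, then 2 uM Z-FR-AMC substrate added; reaction progress from fluorescence change between first and third reads (60 s).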
The depositor's hits bear a star; u = inconclusive; x = not tested or not shown; & = joins results of further samples; [ ] = another dose, or the depositor's remark. Unless noted, the call rests on the fitted dose curve; in most records, active means well fitted curve in the direction sought with a large enough effect; inconclusive means small, poorly fitted or top-dose-only effect, or another doubt; inactive means no such curve, though single readings can be large; an effect the other way counts as inactive or inconclusive. Potency means the concentration at half of the fitted maximal effect.

Structure,RE007 growth inh,2A StopGo,NS1 function inh,SARS PLpro yeast,Cruzain Triton,Marburg entry inh,Lassa entry inh,Cruzain noTriton
Cn1nnnc1SCC(=O)NC(=O)NCc1ccccc1,1%,-5%,2%,10%,7.3%,-2%,-23%,2%
O=C(NCc1ccco1)c1noc2c1CCCCC2,6%,41%[activator],-30%,-4%,3.2%,9%,5%,11%
O=C(NC(=S)Nc1ccccc1Cl)c1ccco1,-16%,59%[activator],-11%,-6%,x,u,-23%,x
CN(C)/C=C/C(=O)c1ccc(Cl)cc1Cl,-1%,-8%,5%,-1%,x,3%[46.1 µM],-21%,x
CCOC(=O)N1CCC(NC(=O)c2csc3c2CCCC3)CC1,-1%,-28%,-1%,-3%,-11%,x,x,-1%
CCOc1ccc(NC(=O)C2C3C=CC4(O3)C2C(=O)N(Cc2cccnc2)C4C(=O)NC2CCCCC2)cc1 (stereo not given),-19%,24%,7%,13%,x,-2%[46.1 µM],19%,x
CN(CCC#N)C(=O)COC(=O)c1cccnc1Nc1ccccc1F,-11%,29%,x,0%,x,-1%,1%,x
Cc1c(C(=O)NC(Cc2ccccc2)c2nc3ccccc3[nH]2)cccc1[N+](=O)[O-] (stereo not given),0%,8%,-2%,-11%,u,-2%,-2%,-25%
CC(C)[C@H](NC(=O)N1CCn2c1nc1ccccc12)C(=O)NCc1ccc2c(c1)OCO2,6%,-21%,-7%,1%,x,x,x,x
Cc1c(-c2cccc(NC(=O)c3ccco3)c2)nc2ncccn12,3%,-2%,x,0%,x,5%[46.1 µM],9%,x
CC(C)c1nc(-c2ccccc2)c(-c2ccccc2)[nH]1,-8%,-9%,-10%,1%,-1.8%,u,4%,-15%
Cc1ccc(C(C)(C)C)c(OCC(=O)Nc2ccc(Cl)cc2C(=O)c2ccccc2)c1,x,u,x,x,-2.2%,x,-2%[46.1 µM],1%
Cc1cc(C)cc(Nc2cc(=O)n(C3CCCCC3)c(=O)[nH]2)c1,23%,u,7%,-9%,1.9%,u,u,-17%
CN1C2CCC1/C(=C/c1ccccn1)C(=O)/C2=C\c1ccccn1,u,4µM*,-60%,-81%,-2.8%,1.3µM*,2.3µM*,18%
CS(=O)(=O)Nc1cccc(C2=NN(C(=O)c3ccco3)C(c3cccs3)C2)c1 (stereo not given),28%,-6%,7%,6%,x,-39%,-18%,x
CCOC(=O)c1cc(-c2ccccc2)nc2nc(N(CC)CC)sc12,2%,-25%,18%,-2%,x,u,u,x
O=C(CCn1c(=O)c2ccccc2n(CC(=O)NCCC2=CCCCC2)c1=O)NCc1ccco1,-11%,-5%,21%,-3%,0.7%,3%&3%,-9%,u
CCN(CC)c1ccc2cc(C(=O)NNC(=O)c3ccc(S(=O)(=O)N4CCCCC4)cc3)c(=O)oc2c1,x,u,-2%,6%,-6.1%,u,-2%,-16%
COc1cc(O)c(C(CC(=O)N2CCN(c3ccccc3)CC2)c2ccc(N(C)C)cc2)c(OC)c1 (stereo not given),7%,-12%,-35%,0%,x,x,x,x
Cn1c(N)c(C(=O)COC(=O)c2ccnc3ccccc23)c(=O)n(C)c1=O,11%,-6%,-2%,-11%,8.6%&0.7%,x,x,1%&2%
COC(=O)c1ccccc1NC(=O)CCc1c(C)nc2cc(-c3ccc(Cl)cc3)nn2c1C,x,0%,x,x,2.7%,-20%[46.1 µM],-4%[46.1 µM],3%
O=C(CSc1nncs1)NC1CCCCCCC1,-11%,11%,x,0%,x,25%,9%,x
CC(=O)N1CCN(C(=S)c2ccc(Cl)cc2)CC1,9%,-23%,1%,-1%,4.8%,-1%,7%,12%
CCC(Sc1nc2ncnc(N)c2[nH]1)C(=O)O (stereo not given),3%,5%,x,0%,x,-3%[46.1 µM],u,x
O=C(NC1CCSc2ccccc21)c1ccc(F)c(S(=O)(=O)N2CCOCC2)c1 (stereo not given),5%,3%,1%,1%,x,-11%,13%,x
Cc1ccccc1Nc1c(-c2c[nH]c3ccccc23)nc2cccc(C)n12,x,9%,x,x,-7.1%,u,-3%[46.1 µM],-7%
Cc1nc(CSc2ccc(Cl)cc2)cc(N2CC(C)OC(C)C2)n1 (stereo not given),10%,-15%,x,-3%,x,u,u,x
CCC(c1nnnn1C1CCCCC1)N(Cc1ccco1)Cc1cc2ccc(OC)cc2[nH]c1=O (stereo not given),9%,u,-2%,-1%,-5.9%,u,u,u
CCOc1ccc(NC(=O)c2cc(S(=O)(=O)N3CCOCC3)ccc2F)cc1,x,1%,x,x,0.3%,x,29%[46.1 µM],-8%
CN(C(=O)C1CCCN(c2ncnc3c2nc2n3CCCCC2)C1)c1cccc(Cl)c1 (stereo not given),-11%,u,-57%,-2%,x,-29%[46.1 µM],u,x
Cc1cc(C)cc(NC(=O)c2cc(S(=O)(=O)N3CCCC3)cn2C)c1,-2%,-18%,-10%,-1%,x,x,x,x
Cc1ccccc1Nc1c2c(nc3nncn13)CCC2,x,-20%,x,x,-1.6%,-1%[46.1 µM],-11%[46.1 µM],2%
CC(C)CC(NC(=O)CCl)c1ccccc1 (stereo not given),x,-14%,7%,14%,-3.5%,-29%,-16%,-3%
OCC1(CCOc2ccccc2)CCN(Cc2cn[nH]c2-c2ccc(F)cc2)CC1,-10%,-27%,-1%,1%,x,4µM*,-28%[46.1 µM],x
COc1ccc(C)cc1S(=O)(=O)NCC(c1ccc(N(C)C)cc1)N1CCc2ccccc21 (stereo not given),x,44%[activator],x,x,-5.0%,x,11%[46.1 µM],u
COc1cccc(-c2cccc(NC(=O)C3CCN(C4CCC4)CC3)c2)c1,-24%,-13%,16%,-2%,x,2%,-2%,x
Cc1cc(C)c2nc(N(Cc3cccnc3)C(=O)c3cccs3)sc2c1,x,0%,x,x,-7.2%,x,u,0%
CCOCCOC(=O)C1=C(C)Nc2ccc(C)cc2S1,-1%,0%,0%,-7%,-2.2%,-1%,8%,-11%
O=[N+]([O-])c1c(Cl)c(Cl)c(Cl)c(Cl)c1Cl,0%,-20%,x,x,5.3%,15%[46.1 µM],8%,2%
CC1(C(=O)Nc2cccc(C(F)(F)F)c2)Cc2ccccc2C(=O)O1 (stereo not given),x,-14%,x,x,-10%,-25%[46.1 µM],0%[46.1 µM],-15%
CCN(CC)S(=O)(=O)c1ccc(N2CCOCC2)c(NC(=O)Cc2ccc(Cl)cc2)c1,5%,10%,-10%,15%,-7.4%,u,-24%[46.1 µM],6%
Cc1ccc(CNC(=O)C2CC(c3cc(C(F)(F)F)cc(C(F)(F)F)c3)=NO2)o1 (stereo not given),-13%,-6%,-7%,0%,x,x,x,x
O=C(O)[C@H]1C[C@@H]1[C@H](NP(=O)(c1ccccc1)c1ccccc1)c1ccccc1,10%,-12%,0%,9%,1.4%&2.4%,22%,3%,3%&-1%
CCc1ccccc1NC(=O)CC(c1ccc(OC)cc1)n1cccc1 (stereo not given),-6%,-26%,13%,4%,-3.5%,2%,1%,-4%
COc1ccccc1NC(=S)NN1CCN(C)CC1,0%,0%,14%,-5%,-1.2%,u,-18%,-5%
O=C(c1ccco1)N(Cc1cc2ccccc2[nH]c1=O)C1CCCCC1,21%,-14%,-5%,2%,-1.2%,3%,-1%,-4%
CC(OC(=O)c1ccc(Cl)c(S(N)(=O)=O)c1)C(=O)NCc1ccc2c(c1)OCO2 (stereo not given),5%,-15%,x,1%,x,2%[46.1 µM],-2%,x
O=C(O)CCc1ccc(-c2ccccc2)n1-c1ccc(C(=O)O)cc1,-12%,-6%&-13%,12%,1%,-9.9%,12%&12%[46.1 µM],12%[46.1 µM],15%
O=C(c1ccc(Br)s1)N1CCc2ccccc2C1,5%,0%,-37%,u,x,x,x,x
CC1(C(=O)OCC(=O)Nc2ccc(S(=O)(=O)N3CCOCC3)cc2)CC1(Cl)Cl (stereo not given),-7%,u,x,3%,x,-37%,u,x
CC1=C(C(=O)Nc2cccc(C)n2)C(c2ccc3c(c2)OCO3)C2=C(CC(c3ccco3)CC2=O)N1 (stereo not given),14%,28%,2%[9.22 µM],3%,-7.1%,u,u,-16%
CC(C)(C)c1ccc(Oc2ccc(N)cn2)cc1,18%,u,-2%,-1%,x,x,x,x
Cc1onc(-c2ccccc2)c1C(=O)N(Cc1ccccc1)C(C)C,-11%,-4%,-9%,1%,x,x,x,x
Cc1ccc(-c2csc(NC(=O)c3cccs3)n2)cc1,-10%,-16%,7%,-2%,-7.5%,u,0%,7%
CSc1c(CC(=O)Nc2ccccc2Cl)n(Cc2ccccc2)c2ccccc12,8%,-15%,15%,4%,-0.6%,u,7%,-22%
COC(=O)c1c(NS(=O)(=O)c2ccc3ccccc3c2)sc2c1CCCC2,-22%,2%,15%,1%,0.5%,8%,4%,u
CCOc1ccccc1Nc1nc(N)nc(CN(C)C2CCCCC2)n1,-19%,-29%,3%,-2%,4.9%,0%,1%,8%
O=C(Nc1cc(-c2nc3ccccc3o2)ccc1Cl)c1cccc2c(Cl)cccc12,x,35%[activator],x,x,0.6%,9%[46.1 µM],1%[46.1 µM],12%
CCOC(=O)Cn1c(-c2cccs2)cc2cc(Cl)ccc21,x,-22%,x,x,-13%,-7%[46.1 µM],u,-5%
COc1ccc(/C=N/NC(=O)C2(C)NC(C)(C)Cc3ccccc32)cc1 (stereo not given),-1%,3%,2%,-1%,x,2%[46.1 µM],-17%,x
Cc1ccc2c(c1)N(CCC(=O)NC1CCCCC1C)C(=O)CO2 (stereo not given),-11%,-16%,3%,-2%,x,-13%[46.1 µM],15%[46.1 µM],x
CC1(C)C(=O)NCCN1C(=O)CCCC(=O)O,14%,4%,u,1%,x,23%[46.1 µM],3%[46.1 µM],x
COc1ccc(CCNCc2ccncc2)cc1OC,-10%,x,5%,0%,0.1%,2%,3%,1%
